Cruzain Triton = inhibitors of Trypanosoma cruzi cruzain with detergent; purified cruzain, Z-FR-AMC fluorescence, 0.01% Triton; Potency, µM, inactives show max response, negative = inhibition, hits mostly inhibitors; 200,000 compounds, 0.43% hits; AID 1478; active = well fitted curve in the direction sought with a large enough effect; inconclusive = small, poorly fitted or top-dose-only effect, or another doubt; inactive = no such curve, though single readings can be large; an effect the other way counts as inactive or inconclusive;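 also: plate controls were neutral wells for no effect and buffer without enzyme for full effect; nearly all actives have a fitted effect of over 40% in size; top concentration of the series not given in the record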
Target sequence (P25779 123-467 limits assumed): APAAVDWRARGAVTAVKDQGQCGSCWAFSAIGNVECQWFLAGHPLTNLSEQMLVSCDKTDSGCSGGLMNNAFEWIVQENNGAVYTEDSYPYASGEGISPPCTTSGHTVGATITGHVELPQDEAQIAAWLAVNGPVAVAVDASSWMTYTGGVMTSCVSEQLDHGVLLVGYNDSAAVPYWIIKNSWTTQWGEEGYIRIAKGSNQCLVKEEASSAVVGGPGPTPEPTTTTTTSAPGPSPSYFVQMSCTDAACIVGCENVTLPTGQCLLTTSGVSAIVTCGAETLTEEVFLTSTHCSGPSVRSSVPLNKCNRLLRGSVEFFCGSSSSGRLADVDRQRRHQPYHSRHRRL
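Cysteine protease activity tested under reducing, mildly acidic conditions (100 mM sodium acetate pH 5.5, 5 mM DTT) plus 0.01% Triton X-100. Cruzain 1.5 nM; substrate Z-FR-AMC 2 uM; 15 min compound preincubation at room temperature.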
SARS PLpro yeast = blocks SARS-CoV papain-like protease in a yeast assay; S. cerevisiae expressing SARS-CoV PLpro, growth rescue; control for the full effect not named in the record; Potency, µM (highest dose often 32.9 µM), for the others: top-dose activity, positive = growth rescue; 330,000 compounds, 0.19% hits; also: 0% is about no effect; nearly all actives have a fitted effect of over 55% in size; growth read by luminescence after 48 h
StopGo reporter = FMDV 2A StopGo reporter, luciferase signal; AID 1159524; Potency, µM (titrated, usually from 57.9 µM), for the others: top-dose signal change, negative = less light; human cells with a luciferase reporter of 2A StopGo recoding; control for the full effect not named in the record; 410,000 compounds, 1.2% hits; active = well fitted falling curve with a large enough effect; inconclusive = small, poorly fitted or top-dose-only effect; inactive = no such curve, though single readings can be large or run the other way; tested in HEK293T cells; also: % is scaled to controls: 0 for no effect and ±100 for the full control effect; nearly all actives have a fitted effect of over 45% in size; luciferase light after 4 h
Marburg entry inh = Marburg virus entry inhibition | 300,000 compounds, 1.8% hits | Marburg virus pseudotyped entry inhibition, cell reporter; control for the full effect not named in the record; about a third of the inactives were read at about 46 µM | AID 540276 | Potency, µM (titrated, usually from 37.8 µM), for inactives: top-dose activity change, negative = inhibition, hits mostly inhibitors; active = well fitted inhibition curve with a large enough effect; inconclusive = small, poorly fitted or top-dose-only effect, or effect the other way; inactive = flat fitted curve, though single readings scatter; tested in HEK293 cells; about a fifth of its hits are not listed in these tables; also: % is scaled to controls: 0 for no effect and ±100 for the full control effect; luciferase read-out
NS1 function inh = blocks influenza NS1 protein function; AID 2326; 270,000 compounds, 0.4% hits; S. cerevisiae slowed by influenza A NS1, growth recovery by OD600; Potency, µM (doses to about 46.1 µM), without a hit: at the top dose activity, positive = more growth; also: actives are rising curves; nearly all actives have a fitted effect of over 50% in size
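Growth recovery, yeast-based: influenza A NS1 expressed in S. cerevisiae causes slow growth, and suppressors are detected by OD600. The parent strain without NS1 is used as positive control.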
RE007 growth inh = less growth of the S. pombe RE007 Vpr strain | 360,000 compounds, 0.21% hits | S. pombe RE007 Vpr strain, BacTiter-Glo ATP luminescence, 24 h; control for the full effect not named in the record | Potency, µM (top dose mostly 92.2 µM), inactives show top-dose activity change, negative = less growth; active = well fitted falling curve with a large enough effect; inconclusive = small, poorly fitted or top-dose-only effect; inactive = no such curve, though single readings can be large or run the other way;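 also: % is scaled to controls: 0 for no effect and ±100 for the full control effect; nearly all actives have a fitted effect of over 50% in size; the assay follows cell death caused by Vpr and the record does not say whether a fall means rescue or toxicity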
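Fission yeast RE007 carrying one integrated HIV-1 vpr copy, seeded at OD 0.01 in PMG+AL medium with 23 nL pinned compound. Grown 24 h at 30 degrees; viability read by BacTiter-Glo luminescence after 5 min.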
LASV entry inh = Lassa virus entry inhibition; Lassa virus pseudotype entry inhibition, cell reporter; control for the full effect not named in the record; Potency, µM (highest dose often 37.9 µM), for the others: at the top dose activity change, negative = inhibition, most hits filed as inhibitors; 300,000 compounds, 1.2% hits; AID 540256; active means well fitted inhibition curve with a large enough effect; inconclusive means small, poorly fitted or top-dose-only effect, or effect the other way; inactive means flat fitted curve, though single readings scatter; tested in HEK293 cells; also: % is scaled to controls: 0 for no effect and ±100 for the full control effect; nearly all actives have a fitted effect of over 50% in size; luciferase read-out
Cruzain noTriton = inhibitors of Trypanosoma cruzi cruzain without detergent | Potency, µM, inactives show max response, negative = inhibition, usual class: inhibitors | purified cruzain, Z-FR-AMC fluorescence, no detergent | 200,000 compounds, 2.3% hits | P25779; active = well fitted curve in the direction sought with a large enough effect; inconclusive = small, poorly fitted or top-dose-only effect, or another doubt; inactive = no such curve, though single readings can be large; an effect the other way counts as inactive or inconclusive;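 also: plate controls were enzyme without inhibitor for no effect and buffer without enzyme for full effect; nearly all actives have a fitted effect of over 40% in size; top concentration of the series not given in the record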
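Purified cruzain at 1.5 nM, pre-incubated 15 min with compound at room temperature in 100 mM sodium acetate pH 5.5, 5 mM DTT, 0.00005% Triton X-100. Reaction started with 2 uM Z-FR-AMC; AMC fluorescence increase over 60 s gives rate.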
The depositor's hits bear a star; ? = inconclusive; nt = no result given; [ ] = remark or other dose. Unless noted, calls follow the shape of the dose curve; as a rule, active means well fitted rising curve with a large enough effect; inconclusive means small, poorly fitted or top-dose-only effect; inactive means no such curve, though single readings can be large or run the other way. Potency is read from the fitted curve at half-maximal effect.

SMILES | Cruzain Triton | SARS PLpro yeast | StopGo reporter | Marburg entry inh | NS1 function inh | RE007 growth inh | LASV entry inh | Cruzain noTriton
Cc1ccc(C)c(OCCC(=O)OCc2csc(CC(=O)Nc3ccccc3C)n2)c1 | nt | 0% | -14% | 12% | nt | 0% | 1% | nt
COc1ccc(CC(=O)Nc2oc(-c3ccccc3)c(-c3ccccc3)c2C#N)cc1OC | -1.7% | 11% | -26% | ? | -53% | -3% | -19% | -7%
CC(C)c1cc(C(=O)Nc2ccc3c(c2)OCO3)no1 | -0.3% | -10% | 26% | nt | -17% | -7% | nt | -5%
O=C(CN1C(=O)c2ccccc2C1=O)OCC(=O)N1CCc2ccccc2C1 | -0.6% | -1% | -22% | 3% | -46% | 13% | 0% | -6%
COC(=O)c1c(NC(=O)COc2cc(C)ccc2C(C)C)sc2c1CCC(C)C2 (configuration not stated) | -0.8% | nt | -14% | nt | nt | nt | 3%[46.1 µM] | 6%
CC1CCN(CCc2nc3cc(NC(=O)COc4ccccc4)ccc3n2C)CC1 | nt | 1% | -1% | nt | 7% | -5% | nt | nt
Cc1c(C)c2ccc(OCC(=O)N3CCN(C(=O)C4COc5ccccc5O4)CC3)cc2oc1=O (configuration not stated) | nt | 3% | ? | nt | 0% | 9% | nt | nt
O=C(N1CCOCC1)N1CCN(c2nc(-c3ccccc3)cs2)CC1 | -3.1% | 1% | 0% | -13% | -8% | -1% | 5% | ?
COCCSc1ccccc1C(=O)Nc1ccc2c(c1)OCO2 | nt | 0% | 3% | nt | 0% | -25% | nt | nt
COc1ccc(N2C(=O)C3CCCN3C2c2ccc(C)cc2)cc1Cl (configuration not stated) | -1.5% | 3% | -11% | 20% | 0% | 2% | 0% | -2%
COc1ccc(/C=N/NC(=O)C2c3ccccc3Oc3ccccc32)c(OC)c1 | -0.7% | 8% | -24% | 0% | 13% | 13% | 0% | ?
CC(=O)c1ccc(N2CCN(C(=O)CCS(=O)(=O)c3ccc(C)cc3)CC2)cc1 | -1.7% | -2% | -6% | 1% | -14% | -9% | -6% | 11%
Cc1nn(Cc2ccc(Cl)cc2Cl)c(C)c1NC(=O)c1nc2n(n1)C(C(F)F)CC(C)N2 (configuration not stated) | 2.5% | -4% | 0% | -13% | 3% | -2% | -13% | ?
Cc1cccc(C)c1NC(=S)N1CCC(c2ccccc2)C1 (configuration not stated) | nt | 18% | 0% | 0%[46.1 µM] | nt | 3% | -14% | nt
CC(=O)c1cccc(NC(=S)NC(=O)c2ccccc2Cl)c1 | -7.0% | 2% | 34%[activator] | 6% | 7% | -12% | 0% | 2%
COCc1nnc(NC(=O)CCCCCN2C(=O)c3ccccc3C2=O)s1 | -0.9% | 5% | -16% | ? | 4% | 0% | 8% | 1%
CC(C)C(=O)Nc1nnc(Cc2c[nH]c3ccccc23)s1 | nt | 0% | -9% | nt | -1% | -20% | nt | nt
CCCC(=O)OCC(=O)Nc1ccc2c(c1)OCO2 | nt | 3% | 15% | ? | -2% | -14% | -4% | nt
Cc1ccc(-c2nc3c4ccccc4n(Cc4cccc(Cl)c4)c(=O)n3n2)cc1 | -0.3% | nt | 27% | nt | nt | nt | -2%[46.1 µM] | -8%
CCN(CC)c1ccc(/C=N/Nc2nc3ccccc3[nH]2)cc1 | -9.5% | -87% | -44% | 8.2µM* | -14% | 9% | 8.2µM* | ?
O=C(O)C1C2CCC(O2)C1C(=O)Nc1cccc(F)c1 (configuration not stated) | 3.9% | 0% | nt | nt | -6% | nt | nt | 4%
Cc1cc(C(=O)NCC(=O)OC(C(=O)Nc2cc(C(F)(F)F)ccc2Cl)c2ccccc2)ccc1[N+](=O)[O-] (configuration not stated) | 4.5µM* | -3% | 5% | ? | 30% | 4% | ? | 32µM*
CCOC(=O)Cc1csc(NC(=O)c2ccc(Br)s2)n1 | 2.4% | -4% | nt | 1% | -74% | nt | nt | 11%
COc1cc(CCC(=O)NCc2ccc3c(c2)CCN3C(=O)c2ccccc2)cc(OC)c1OC | 3.8% | nt | 0% | nt | nt | nt | 2%[46.1 µM] | ?

3 structures from above, arranged by count of non-hydrogen atoms, highest first.
SMILES | Cruzain Triton | SARS PLpro yeast | StopGo reporter | Marburg entry inh | NS1 function inh | RE007 growth inh | LASV entry inh | Cruzain noTriton
CC(=O)c1cccc(NC(=S)NC(=O)c2ccccc2Cl)c1 | -7.0% | 2% | 34%[activator] | 6% | 7% | -12% | 0% | 2%
CCOC(=O)Cc1csc(NC(=O)c2ccc(Br)s2)n1 | 2.4% | -4% | nt | 1% | -74% | nt | nt | 11%
CCCC(=O)OCC(=O)Nc1ccc2c(c1)OCO2 | nt | 3% | 15% | ? | -2% | -14% | -4% | nt

The main list resumes with the 5 entries that preceded the break.
SMILES | Cruzain Triton | SARS PLpro yeast | StopGo reporter | Marburg entry inh | NS1 function inh | RE007 growth inh | LASV entry inh | Cruzain noTriton
CCN(CC)c1ccc(/C=N/Nc2nc3ccccc3[nH]2)cc1 | -9.5% | -87% | -44% | 8.2µM* | -14% | 9% | 8.2µM* | ?
O=C(O)C1C2CCC(O2)C1C(=O)Nc1cccc(F)c1 (configuration not stated) | 3.9% | 0% | nt | nt | -6% | nt | nt | 4%
Cc1cc(C(=O)NCC(=O)OC(C(=O)Nc2cc(C(F)(F)F)ccc2Cl)c2ccccc2)ccc1[N+](=O)[O-] (configuration not stated) | 4.5µM* | -3% | 5% | ? | 30% | 4% | ? | 32µM*
CCOC(=O)Cc1csc(NC(=O)c2ccc(Br)s2)n1 | 2.4% | -4% | nt | 1% | -74% | nt | nt | 11%
COc1cc(CCC(=O)NCc2ccc3c(c2)CCN3C(=O)c2ccccc2)cc(OC)c1OC | 3.8% | nt | 0% | nt | nt | nt | 2%[46.1 µM] | ?
O=C(/C=C/c1ccccc1)Nc1cc(-c2nc3cc(Cl)ccc3o2)ccc1Cl | 0.8% | nt | 24% | ? | nt | nt | 1%[46.1 µM] | 7%
COc1ccccc1CNc1ccc(-c2nc(-c3ccccc3C)no2)cc1[N+](=O)[O-] | -3.8% | nt | -6% | -18%[46.1 µM] | nt | nt | -3%[46.1 µM] | ?
COc1cc(Cl)cc(C#N)c1OCC(=O)O | 0.2% | 2% | nt | 4% | -6% | -5% | -4% | 1%
COc1ccc(C(=S)N2CCOCC2)cc1OC(=O)c1ccc(C)cc1 | nt | -1% | -11% | -3%[46.1 µM] | -32% | 3% | -15%[46.1 µM] | nt
COc1ccc(C2C(C(N)=O)=C(C)Nc3nc(-c4ccccc4Cl)nn32)cc1 (configuration not stated) | -2.2% | nt | -4% | 9%[46.1 µM] | nt | nt | 3%[46.1 µM] | 0%
CN1CCc2c(sc(/N=C/c3cc(Cl)ccc3O)c2C#N)C1 | nt | 1% | -11% | ? | 6% | ? | ? | nt
O=C(NC1CCCC1)C1C2C=CC(C2)C1C(=O)N1CCOCC1 (configuration not stated) | 0.3% | 1% | 24% | 6% | 0% | 7% | 6% | -3%
CCc1ccccc1S(=O)(=O)Cc1ccc(C(=O)NCCc2ccccc2)o1 | nt | -2% | -5% | -1%[46.1 µM] | 5% | -12% | -6%[46.1 µM] | nt
COc1cc(Cl)c(C)cc1NC(=O)c1cc(CN2CCOCC2)on1 | -5.7% | nt | -12% | nt | nt | nt | -3%[46.1 µM] | 26%
O=C(CNC(=O)c1ccccc1F)NCc1ccncc1 | nt | -4% | -2% | 13% | nt | -10% | ? | nt
Nc1ccc(Sc2nnnn2-c2ccccc2)c(Cl)c1 | -5.4% | -4% | 4% | 1% | 2% | 8% | -3% | 8%
O=C(CCn1c(=O)oc2cc(Cl)ccc21)Nc1ccc(O)cc1 | nt | -1% | 10% | 23%[46.1 µM] | 13% | 2% | nt | nt
CCc1cc(=O)oc2c3c(cc(OCC(=O)NCCCCCC(=O)O)c12)OC(C)(C)CC3 | nt | -2% | -6% | nt | 3% | -6% | nt | nt
CC1CCN(C(=O)COC(=O)c2ccc(=O)n(Cc3ccccc3)n2)CC1 | nt | 3% | -8% | -5% | nt | -21% | 1% | nt
O=C1NC(=S)SC1=Cc1ccc2c(c1)OCO2 | nt | nt | -3% | -6%[46.1 µM] | nt | -13% | -4%[46.1 µM] | nt
COc1ccc(Cl)c2sc(N(CCN(C)C)C(=O)C3=COCCO3)nc12 | nt | nt | -19% | ? | nt | 17% | 18% | nt
COc1cc(O)c2c(c1)OC(c1ccc(O)cc1)CC2=O (configuration not stated) | nt | -2% | 16% | nt | 2% | -25% | nt | nt
CCOC(=O)c1cccc(NC(=O)CCn2nnc3ccccc32)c1 | 11% | 2% | -19% | 4% | 1% | 10% | -22% | 3%
CCOC(=O)C(=O)Nc1nc(-c2ccc3c(c2)CCN3C(=O)C2CC2)c(C)s1 | nt | -1% | 0% | 11%[46.1 µM] | 9% | 9% | 29%[46.1 µM] | nt
COc1ccccc1N1CCN(C(=O)c2ccc3nc(-c4ccco4)c(-c4ccco4)nc3c2)CC1 | 13µM* | 15% | ? | 21µM* | 14µM* | 22% | ? | ?
O=c1/c(=C/c2ccc(O)cc2)sc2n1CCCN=2 | -6.8% | ? | 34%[activator] | 6% | -8% | -8% | ? | -5%
COc1cc(S(=O)(=O)NC2CCCC2)c(OC)cc1Cl | 2.6% | -6% | 93%[activator] | -14% | -11% | 5% | -1% | -6%
CCOc1cc(C(=O)NC(CC(=O)O)c2ccc(OC3CCCC3)cc2)cc(OCC)c1OCC (configuration not stated) | nt | 1% | 8% | nt | 1% | 8% | nt | nt
COc1cc(NC(=S)NC2CC(C)(C)NC(C)(C)C2)cc(OC)c1 | nt | 0% | 0% | 6%[46.1 µM] | -8% | 26% | ? | nt
CCC(=O)N1CCN(c2ccc(Cl)cc2NC(=O)c2ccc(Br)o2)CC1 | nt | nt | ? | -27% | 5% | -15% | -18% | nt
Cc1onc(-c2ccccc2Cl)c1C(=O)NC(=S)NCc1cccnc1 | nt | -1% | -13% | -25%[46.1 µM] | 7% | -16% | 2%[46.1 µM] | nt
CCCCN(CCCNC(=O)CN1N=C(c2ccc(C)cc2)CCC1=O)c1ccccc1 | -1.2% | nt | -16% | nt | nt | nt | 20%[46.1 µM] | ?

Screens from PubChem.
